MLL AF4-AF9 inh: inhibitors of AF4 peptide binding to AF9, primary screen, biochemical, AlphaScreen, biotin-AF4 peptide, FLAG-AF9, single point; inhibition, % at 10 µM; AID 651704, 2012; Protein AF-9 (Homo sapiens), P42568; actives 0.47% (n = 350,000);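 active means every replicate reaching a set inhibition limit, whatever the replicate mean, cut at about 25% in these data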;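 further: 0% = plate neutral control median and 100% = total signal loss; the record names both 10 and 1 µM as test concentration; the first replicate is given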
Target sequence (P42568 whole entry, looked up): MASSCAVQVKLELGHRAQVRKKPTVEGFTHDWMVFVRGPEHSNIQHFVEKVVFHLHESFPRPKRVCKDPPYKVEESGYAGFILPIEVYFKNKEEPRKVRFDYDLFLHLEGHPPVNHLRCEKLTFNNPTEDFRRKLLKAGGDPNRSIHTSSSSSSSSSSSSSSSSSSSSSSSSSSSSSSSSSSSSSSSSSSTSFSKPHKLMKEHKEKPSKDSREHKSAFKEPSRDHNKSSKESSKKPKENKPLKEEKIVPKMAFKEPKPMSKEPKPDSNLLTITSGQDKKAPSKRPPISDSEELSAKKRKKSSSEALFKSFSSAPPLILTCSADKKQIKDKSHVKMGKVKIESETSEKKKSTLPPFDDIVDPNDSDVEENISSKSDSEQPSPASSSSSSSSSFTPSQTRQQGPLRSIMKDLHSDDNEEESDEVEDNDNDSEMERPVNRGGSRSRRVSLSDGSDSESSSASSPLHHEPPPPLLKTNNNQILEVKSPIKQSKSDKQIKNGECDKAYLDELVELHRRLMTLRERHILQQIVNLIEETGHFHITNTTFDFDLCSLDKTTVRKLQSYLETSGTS
* = called active by the depositor; & = joins results of further samples. Some of the compounds tested. The share of hits here may be higher or lower than overall.

SMILES | MLL AF4-AF9 inh
C/C=C/c1ccc([C@@H]2[C@H](CO)N(C(=O)CC)C23CN(C(=O)c2ccccc2)C3)cc1 | 0.1
CN(C)CC(=O)Nc1ccc2c(c1)[C@@H]1C[C@@H](CC(=O)N3CCN(C)CC3)O[C@@H](CO)[C@@H]1O2 | -1.3
COc1ccc(CN(C)C[C@H]2Oc3ccc(NC(=O)NC4CCCCC4)cc3CC(=O)N([C@H](C)CO)C[C@H]2C)cc1 | 2.0
O=C(C1CCCC1)N1CCCCN2[C@@H](CO)[C@@H](c3ccc(-c4ccncc4)cc3)[C@@H]2C1 | 0.6
O=C(C1CC1)N1CC(=O)N2[C@H](CO)[C@H](c3ccc(C#Cc4cccc(F)c4)cc3)[C@@H]2C1 | -3.3
CCCCN1C(=O)C(CC(=O)NCc2cccc3ccccc23)CC(C(=O)N(CC)CC)=C1C (stereo not given) | -2.3
CN1C(=O)c2cc(NC(=O)c3ccc(C(F)(F)F)cc3)ccc2OC[C@H]2O[C@H](CC(=O)NCc3ccc4c(c3)OCO4)CC[C@@H]21 | -0.7
C[C@@H]1CCCCO[C@@H](CN(C)C(=O)NC2CCCCC2)[C@@H](C)CN([C@H](C)CO)C(=O)c2cc(NS(=O)(=O)c3ccc(Cl)cc3)ccc2O1 | -5.1
CNC[C@H]1Oc2c(NC(=O)Nc3ccc(F)cc3)cccc2C(=O)N([C@H](C)CO)C[C@H]1C | 1.1
C[C@H](CO)N1C[C@H](C)[C@@H](CN(C)Cc2ccccc2)OCc2ccccc2-c2ccccc2C1=O | 1.3
CO[C@H]1CN(C)C(=O)c2cc(NC(=O)C3CC3)ccc2OC[C@@H](C)N(Cc2ccncc2)C[C@H]1C | -0.6
C[C@@H]1CCCCO[C@@H](CN(C)C(=O)NC2CCCCC2)[C@@H](C)CN([C@H](C)CO)C(=O)c2cc(NC(=O)CCCN(C)C)ccc2O1 | -1.2
COc1ccc2c3c([nH]c2c1)[C@H](CO)N(C(=O)c1cccnc1)CC31CCN(C(=O)NC(C)C)CC1 | -0.3
O=C(C[C@@H]1CC[C@H](NC(=O)CN2CCOCC2)[C@H](CO)O1)NC1CCCCC1 | -2.3
COc1cc(OC)cc(C2=Cc3ccccc3C(CC(C)=O)N2c2ccc(C#CC3(N)CCCCC3)cc2)c1 (stereo not given) | 12
COc1ccc2c3c(n(C)c2c1)[C@H](CO)N(C(=O)C1CCCC1)CC31CN(C(=O)Nc2cccc(F)c2)C1 | 4.2
CC(C)NC(=O)N(C)C[C@@H]1Oc2c(NC(=O)Nc3ccc(F)cc3)cccc2C(=O)N([C@@H](C)CO)C[C@@H]1C | -2.3
COc1ccccc1C#Cc1ccc([C@@H]2[C@@H](CO)N3CCCCN(CCC(F)(F)F)C[C@H]23)cc1 | 4.7
CCCCOCC1CN(CCCC)S(=O)(=O)c2c(F)cccc2O1 (stereo not given) | -15
CN(C)c1ccc(N(C)C)c(C(O)(c2ccccc2)c2ccccc2)c1 | 6.3
COc1ccc(S(=O)(=O)N[C@@H]2CC[C@H](CC(=O)O)O[C@H]2CO)cc1 | -1.9
O=C(C[C@H]1C[C@H]2c3cc(NC(=O)c4ccc5c(c4)OCO5)ccc3O[C@H]2[C@H](CO)O1)NCC(F)(F)F | -3.6
C[C@@H]1CN([C@H](C)CO)C(=O)c2cc(-c3cccnc3)cnc2O[C@H]1CN(C)Cc1ccc(-c2ccccc2)cc1 | 17
O=C(C[C@H]1C=C[C@H](NS(=O)(=O)c2cccc(F)c2)[C@@H](CO)O1)NCc1ccc2c(c1)OCO2 | 0.0
CN1C(=O)c2cc(NS(C)(=O)=O)ccc2OC[C@@H]2O[C@@H](CC(=O)N3CCOCC3)CC[C@@H]21 | 0.7
The list continues:
SMILES | MLL AF4-AF9 inh
C/C=C/c1ccc([C@@H]2[C@@H](CO)N3C(=O)CN(C(=O)c4cnccn4)C[C@H]23)cc1 | 4.8
O=C(NCC[C@@H]1CC[C@@H](NS(=O)(=O)c2ccc(Cl)cc2)[C@@H](CO)O1)c1ccc2c(c1)OCO2 | 1.6
CC(C)n1ncc2c(C(=O)NCc3cccnc3)cc(C3CC3)nc21 | 1.3
O=C(C[C@@H]1CC[C@H]2[C@@H](COC[C@@H](O)CN2Cc2ccc(C(F)(F)F)cc2)O1)N1CCc2ccccc2C1 | 3.5
CC(C)CC#Cc1ccc([C@H]2[C@H](CO)N3C(=O)CN(C(=O)NC4CCCCC4)C[C@@H]23)cc1 | 4.3
Cc1noc(C)c1S(=O)(=O)Nc1ccc2c(c1)CC(=O)N([C@H](C)CO)C[C@@H](C)[C@@H](CN(C)CC1CC1)O2 | -2.2
Cc1ccccc1-c1cnc2c(c1)C(=O)N([C@H](C)CO)C[C@H](C)[C@@H](CN(C)C(=O)c1ccc(F)cc1)O2 | -2.8
Cc1noc(C)c1S(=O)(=O)N(C)C[C@H]1OCCCC[C@H](C)Oc2ccc(NS(=O)(=O)c3cccs3)cc2C(=O)N([C@H](C)CO)C[C@H]1C | 0.6
CCCC(C)(C)C(=O)N1CCC1(C)C(=O)Nc1cccc(OC)c1 (stereo not given) | -4.7
NC(c1csc(Nc2ccccn2)n1)c1ccccc1Cl (stereo not given) | 3.4
O=C(C[C@@H]1CC[C@H](NC(=O)c2ccncc2)[C@H](CO)O1)NCc1ccncn1 | -2.7
C[C@@H]1CN([C@@H](C)CO)C(=O)c2cc(C#CC3CCCC3)cnc2O[C@H]1CN(C)C(=O)c1ccncc1 | 1.4
O=C(CN1CCOCC1)NCC[C@@H]1CC[C@@H](NC(=O)Cc2ccccn2)[C@H](CO)O1 | -0.4
O=C(c1cccc(F)c1)N1CC2(C1)[C@@H](c1ccccc1)[C@@H](CO)N2Cc1ccccn1 | -0.4
COc1ccc(CN(C)C[C@@H]2OCCCC[C@@H](C)Oc3ccc(NC(=O)Nc4ccc(OC)cc4)cc3C(=O)N([C@@H](C)CO)C[C@H]2C)cc1 | -1.3
C[C@@H]1CN([C@@H](C)CO)C(=O)c2cc(C#CC3CCCCC3)cnc2O[C@H]1CN(C)C(=O)Nc1ccccc1 | 6.3
C[C@@H]1CN([C@@H](C)CO)C(=O)c2cccc(NC(=O)Nc3cccc4ccccc34)c2O[C@H]1CN(C)C(=O)Nc1cccc2ccccc12 | 1.3
CC(C)NC(=O)N(C)C[C@@H]1Oc2c(NC(=O)C3CCCCC3)cccc2C(=O)N([C@H](C)CO)C[C@H]1C | -2.1
CCCNC(=O)N[C@@H]1CC[C@H](CC(=O)NC2CCCCC2)O[C@H]1CO | 0.1
Nc1ccn([C@@H]2O[C@H](C(=O)N[C@H]3c4ccccc4C[C@H]3O)[C@@H](O)[C@H]2O)c(=O)n1 | -1.7
COc1cc(F)ccc1-c1cc(C(=O)NCc2ccc(F)cc2)[nH]n1 | 0.7
CO[C@H]1CN(C)C(=O)c2ccc(NC(=O)C3CC3)cc2OC[C@@H](C)N(C(=O)c2ccccc2)C[C@@H]1C | -0.8
Cc1ccc(S(=O)(=O)N(C)C[C@H]2Oc3cc(C#CC4CCCC4)ccc3S(=O)(=O)N([C@H](C)CO)C[C@@H]2C)cc1 | 1.1
C[C@H]1CN([C@@H](C)CO)C(=O)c2cccc(NC(=O)C3CCOCC3)c2O[C@@H]1CN(C)Cc1ccc(Oc2ccccc2)cc1 | 3.4
CC(=O)Nc1ccc(S(=O)(=O)N[C@@H](C)C(=O)OCC(=O)Nc2ccc3c(c2)OCCO3)cc1 | -1.3

10 entries from above, set out differently:
MLL AF4-AF9 inh,Molecule
4.8,C/C=C/c1ccc([C@@H]2[C@@H](CO)N3C(=O)CN(C(=O)c4cnccn4)C[C@H]23)cc1
1.6,O=C(NCC[C@@H]1CC[C@@H](NS(=O)(=O)c2ccc(Cl)cc2)[C@@H](CO)O1)c1ccc2c(c1)OCO2
1.3,CC(C)n1ncc2c(C(=O)NCc3cccnc3)cc(C3CC3)nc21
3.5,O=C(C[C@@H]1CC[C@H]2[C@@H](COC[C@@H](O)CN2Cc2ccc(C(F)(F)F)cc2)O1)N1CCc2ccccc2C1
4.3,CC(C)CC#Cc1ccc([C@H]2[C@H](CO)N3C(=O)CN(C(=O)NC4CCCCC4)C[C@@H]23)cc1
-2.2,Cc1noc(C)c1S(=O)(=O)Nc1ccc2c(c1)CC(=O)N([C@H](C)CO)C[C@@H](C)[C@@H](CN(C)CC1CC1)O2
-2.8,Cc1ccccc1-c1cnc2c(c1)C(=O)N([C@H](C)CO)C[C@H](C)[C@@H](CN(C)C(=O)c1ccc(F)cc1)O2
0.6,Cc1noc(C)c1S(=O)(=O)N(C)C[C@H]1OCCCC[C@H](C)Oc2ccc(NS(=O)(=O)c3cccs3)cc2C(=O)N([C@H](C)CO)C[C@H]1C
-4.7,CCCC(C)(C)C(=O)N1CCC1(C)C(=O)Nc1cccc(OC)c1 (stereo not given)
3.4,NC(c1csc(Nc2ccccn2)n1)c1ccccc1Cl (stereo not given)

(continued)
SMILES | MLL AF4-AF9 inh
CC(C)c1cn(CC[C@H]2CC[C@@H](NC(=O)c3cccc(F)c3)[C@H](CO)O2)nn1 | 0.0
COC(=O)[C@@]12C[C@@H](CC(=O)NCCCCc3ccccc3)C(=O)N(CCc3ccc(OC)c(OC)c3)C1=CCC(C)(C)C2 | 1.8
CC(C)NC(=O)Nc1ccc2c(c1)CC(=O)N([C@H](C)CO)C[C@@H](C)[C@H](CN(C)C(=O)Nc1ccc(C(F)(F)F)cc1)O2 | -3.2
CCCCN(CCCC)Cc1cc(=O)oc2cc(OC)c(Cl)cc12 | -0.4
N#C[C@@H]1[C@H](c2ccc(-c3cccc(F)c3)cc2)[C@@H](CO)N1C(=O)NC1CCCCC1 | -1.0
C[C@H](CO)N1C[C@H](C)[C@@H](CN(C)Cc2ccc(C(=O)Nc3ccccc3N)cc2)Oc2ccc(NC(=O)CCN3CCOCC3)cc2CC1=O | -4.6
CCN(c1ccccc1)S(=O)(=O)c1cccc(C(=O)N(C)CC(=O)Nc2ccc(F)c(F)c2F)c1 | 1.1
CCN1CCN(S(=O)(=O)c2ccc(Cl)c(C(=O)N(C)Cc3ccc(C(C)(C)C)cc3)c2)CC1 | 7.7
O=C(Nc1ccc2c(c1)[C@@H]1C[C@@H](CC(=O)N3CCCCC3)O[C@H](CO)[C@@H]1O2)NC1CCCC1 | 0.7
Cc1ccc(S(=O)(=O)Nc2ccc3c(c2)CC(=O)N([C@H](C)CO)C[C@@H](C)[C@@H](CN(C)Cc2ccc4c(c2)OCO4)O3)cc1 | 0.5
N#C[C@H]1[C@H](c2ccc(C#Cc3cccc(F)c3)cc2)[C@@H](CO)N1C(=O)C1CCC1 | -2.2
CO[C@H](CN(C)C(=O)C1CCOCC1)[C@H](C)CN(C(=O)Nc1ccc(F)cc1)[C@@H](C)CO | 0.3
O=C1C[C@@](C(=O)NCCN2CCOCC2)(c2ccc([N+](=O)[O-])cc2)[C@@H](c2ccc(CO)cc2I)N1CC12CC3CC(CC(C3)C1)C2 | 27*
CO[C@@H]1CN(C)C(=O)c2cc(NC(=O)c3nc4ccccc4s3)ccc2OC[C@@H](C)NC[C@@H]1C | 1.1
COc1ccc(C(O)c2ncc(-c3ccccc3OC)[nH]2)cc1 (stereo not given) | 8.2
O=S(=O)(c1cccs1)N1CCCCN2[C@H](C1)[C@@H](c1ccc(/C=C/c3ccccc3)cc1)[C@@H]2CO | -0.9
C[C@@H]1CN([C@H](C)CO)C(=O)c2cccc(NC(=O)Nc3ccc(F)cc3)c2O[C@H]1CN(C)CC1CC1 | -6.5
Cc1noc(C)c1NC(=O)N(C)C[C@H]1Oc2ccc(NS(=O)(=O)c3cn(C)cn3)cc2CC(=O)N([C@H](C)CO)C[C@@H]1C | -6.9
COc1ccc2c3c(n(C)c2c1)[C@@H](CO)NCC31CCN(Cc2ccccc2Cl)CC1 | 1.8
COc1cccc(-c2cnc3c(c2)C(=O)N([C@H](C)CO)C[C@@H](C)[C@@H](CN(C)C(=O)CC2CC2)O3)c1 | -2.4
O=C(C[C@@H]1C[C@H]2c3cc(NC(=O)C4CCOCC4)ccc3O[C@H]2[C@H](CO)O1)NCC(F)(F)F | -4.9
COc1ccc(S(=O)(=O)Nc2cccc3c2O[C@@H](CN(C)C(=O)Nc2ccc(F)cc2)[C@H](C)CN([C@H](C)CO)C3=O)cc1 | 1.1
Fc1cccc(-c2ccc([C@@H]3[C@@H]4CN(Cc5nccs5)C[C@H]3N4)cc2)c1 | 14
C[C@@H]1CN([C@@H](C)CO)C(=O)Cc2cc(NC(=O)C3CCCCC3)ccc2O[C@@H]1CN(C)Cc1ccc(Cl)c(Cl)c1 | 0.3
CC(C)NC(=O)N(C)C[C@@H]1Oc2ccc(NC(=O)CCCCCC(=O)Nc3ccccc3N)cc2CC(=O)N([C@@H](C)CO)C[C@H]1C | -6.0
The results go on.
SMILES | MLL AF4-AF9 inh
COc1ccc(NC(=O)N[C@@H]2CC[C@H](CCNC(=O)Cc3ccncc3)O[C@H]2CO)cc1 | 0.6
C[C@H]1CN([C@@H](C)CO)C(=O)c2cc(NC(=O)Nc3ccc(C(F)(F)F)cc3)ccc2O[C@@H]1CN(C)C(=O)NC1CCCCC1 | -0.9
CNC[C@@H]1OCCCC[C@H](C)Oc2ccc(NC(=O)NC(C)C)cc2C(=O)N([C@@H](C)CO)C[C@@H]1C | -0.4
O=C1C[C@@H]2C(=O)N(c3ccccc3)C(=O)[C@@H]2[C@@H]2CN(S(=O)(=O)c3ccccc3)[C@@H](c3ccccc3)[C@H]12 | -16
CCC(=O)Nc1ccc2c(c1)C(=O)N(C)[C@@H]1CC[C@@H](CC(=O)NCC3CCCCC3)O[C@H]1CO2 | -1.0
C[C@@H]1CN([C@@H](C)CO)C(=O)c2cc(C3=CCCCC3)cnc2O[C@@H]1CN(C)C(=O)c1ccccc1 | -2.6
C[C@H]1CN([C@@H](C)CO)C(=O)c2cc(C#CCN(C)C)cnc2O[C@H]1CN(C)S(C)(=O)=O | -3.2
C[C@@H]1CN([C@H](C)CO)C(=O)CCCn2nncc2CO[C@H]1CN(C)Cc1cccc(C(=O)O)c1 | -0.5&0.4
C[C@H]1CN([C@@H](C)CO)C(=O)Cc2cc(NS(=O)(=O)c3ccccc3)ccc2O[C@@H]1CN(C)S(=O)(=O)c1ccccc1 | -2.0

Screening results deposited in PubChem by Broad Institute.
